# Vaccinia stage – blocks a specific stage of Vaccinia orthopoxvirus infection; Vaccinia-infected cells, mCherry/Venus stage reporter fluorescence; stronger effect = lower value; some inactives read as strong as hits; activity change (mCherry), % (no concentration beside the values); 89,000 compounds, 0.01% hits; AID 1053133;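 active means mCherry past -33% and 40 or more points under the early reporter, replicates agreeing; inconclusive means past -33% without that gap or agreement; tested in A549 cells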;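 further: scaled between vehicle wells and reference inhibitor wells; 23 nL library stock went into each well; one replicate is shown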
# Vaccinia stage Venus – also measured in Vaccinia stage; calls as there; activity change (Venus), %; measured here: Venus reporter, other viral stage;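 negative = less Venus signal; first of two replicates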
# * marks the source's active call; other numbers are inactive results; ? = inconclusive; / = no result given; & = joins results of further samples. The list is partial, so the mix of outcomes need not match the whole.
# The first two entries as a preview:
SMILES,Vaccinia stage,Vaccinia stage Venus
COc1ccc(S(=O)(=O)N(C)C[C@@H]2OCCCC[C@@H](C)Oc3ccc(NC(=O)C4CCCCC4)cc3C(=O)N([C@H](C)CO)C[C@@H]2C)cc1,4.3,4.2
CC(C)NC(=O)N1C[C@H]2[C@@H](c3ccccc31)[C@H](CO)N2C(=O)c1ccccc1F,12.6,12.5

# Main list, repeating the preview:
SMILES,Vaccinia stage,Vaccinia stage Venus
COc1ccc(S(=O)(=O)N(C)C[C@@H]2OCCCC[C@@H](C)Oc3ccc(NC(=O)C4CCCCC4)cc3C(=O)N([C@H](C)CO)C[C@@H]2C)cc1,4.3,4.2
CC(C)NC(=O)N1C[C@H]2[C@@H](c3ccccc31)[C@H](CO)N2C(=O)c1ccccc1F,12.6,12.5
CN1[C@H](CO)[C@H]2c3ccccc3N(C(=O)Nc3ccccc3F)C[C@H]21,2.4,8.1
CCO[C@H]1OC(C(=O)Nc2ccccc2)=C[C@@H](c2ccc(Br)cc2)[C@@H]1CCCO,-21.3,-22.1
C[C@H]1CN([C@@H](C)CO)C(=O)c2cccc(NC(=O)c3ccc(-c4nccs4)cc3)c2O[C@@H]1CN(C)C(=O)Nc1ccc2c(c1)OCO2,5.4,4.7
C[C@H](CO)N1C[C@H](C)[C@@H](CN(C)S(C)(=O)=O)OCCCC[C@H](C)Oc2ccc(NS(=O)(=O)c3ccc(F)cc3)cc2C1=O,10.3,4.9
COc1cccc(-c2ccc3n(c2=O)C[C@H]2[C@H](CO)[C@@H](C(=O)N(C)C)N(C(=O)C4CCCC4)[C@@H]32)c1,13.4,2.9
C[C@H]1CN([C@@H](C)CO)S(=O)(=O)c2ccc(C3=CCCC3)cc2O[C@H]1CN(C)C,-31.1,-21.0
O=C(C[C@H]1CC[C@@H](NC(=O)Nc2cc(F)ccc2F)[C@@H](CO)O1)NCc1ccccn1,-0.8,2.5
CO[C@H]1CN(C)C(=O)c2cc(NS(C)(=O)=O)ccc2OC[C@H](C)N(C)C[C@H]1C,-4.0,4.3
COCC(=O)N1[C@H](CO)[C@@H]2c3ccccc3N(C(=O)NC(C)C)C[C@@H]21,8.3,0.7
Cc1noc(C)c1C(=O)N(C)C[C@H]1OCc2ccccc2-c2c(n(C)c3ccccc23)C(=O)N([C@@H](C)CO)C[C@@H]1C,4.5,-7.5
O=C(Nc1ccc2c(c1)OCO2)N[C@H]1CC[C@@H](CCNC(=O)C2CCCC2)O[C@@H]1CO,9.6,16.1
O=C(Nc1cccc(F)c1)N1CC(=O)N2[C@H](CO)[C@H](c3ccc(C#CCC4CCCC4)cc3)[C@H]2C1,-10.8,-5.5
C/C=C/c1ccc([C@@H]2[C@@H](C#N)N(c3nc(-c4ccccc4)cs3)[C@@H]2CO)cc1,15.6,7.5
Cc1noc(C)c1S(=O)(=O)N(C)C[C@H]1OCCCC[C@H](C)Oc2ccc(NS(=O)(=O)c3cccs3)cc2C(=O)N([C@H](C)CO)C[C@@H]1C,-24.7,-17.7
C[C@@H]1CN([C@H](C)CO)C(=O)CCCn2cc(nn2)CO[C@H]1CN(C)Cc1ccc2c(c1)OCO2,-8.6,-6.2
CCNC[C@H]1[C@@H](c2ccc(C3=CCCC3)cc2)[C@@H](CO)N1C(=O)C1CCCC1,-8.1,1.3
C[C@H]1CCCCO[C@H](CN(C)Cc2ccncc2)[C@@H](C)CN([C@@H](C)CO)C(=O)c2cc(NC(=O)CCCN(C)C)ccc2O1,-0.4,1.1
C[C@@H]1CN([C@@H](C)CO)C(=O)c2cc(NC(=O)c3ccncc3)ccc2O[C@@H]1CN(C)S(=O)(=O)c1cccs1,28.5,20.7
Cc1noc(C)c1S(=O)(=O)Nc1ccc2c(c1)C(=O)N([C@@H](C)CO)C[C@H](C)[C@@H](CN(C)C)OCCCC[C@@H](C)O2,15.5,6.6
CO[C@@H]1CN(C)C(=O)c2cc(NC(C)=O)ccc2OC[C@@H](C)N(Cc2ccncc2)C[C@H]1C,10.3,0.7
C[C@H]1CN([C@@H](C)CO)C(=O)c2cc(NC(=O)NC3CCCCC3)ccc2O[C@H]1CN(C)S(=O)(=O)c1cccs1,-7.3,-7.4
C[C@@H]1CCCCO[C@H](CN(C)S(=O)(=O)c2ccc(Cl)cc2)[C@@H](C)CN([C@H](C)CO)C(=O)c2cc(NC(=O)c3ccncc3)ccc2O1,12.4,1.4
O=C(C[C@H]1CC[C@@H]2[C@H](COC[C@@H](O)CN2Cc2nccs2)O1)NCc1ccc(F)cc1,12.7,4.0

# (list continues)
SMILES,Vaccinia stage,Vaccinia stage Venus
CCS(=O)(=O)Nc1ccc2c(c1)C(=O)N(C)C[C@H](OC)[C@@H](C)CN(C(=O)C1CCC1)[C@@H](C)CO2,8.2,2.7
C[C@@H]1CN([C@@H](C)CO)C(=O)c2cccc(NC(=O)Nc3ccccc3)c2O[C@@H]1CN(C)C(=O)NC1CCCCC1,?,/
O=C([C@@H]1[C@@H](CO)[C@@H]2Cn3c(cccc3=O)[C@H]1N2Cc1cccc(Cl)c1)N1CCCCC1,1.1,-2.6
C[C@@H]1CCCCO[C@H](CN(C)Cc2ccc3c(c2)OCO3)[C@@H](C)CN([C@@H](C)CO)C(=O)c2cc(NC(=O)Nc3ccc(F)cc3)ccc2O1,?,/
COc1ccc(CN(C)C[C@H]2Oc3ccc(NS(=O)(=O)c4c(C)noc4C)cc3C(=O)N([C@H](C)CO)C[C@H]2C)cc1,-7.7,-13.1
CN(C)C(=O)c1cccc(-c2ccccc2[C@@H]2[C@@H](CO)N(C(=O)C3CC3)[C@H]2C#N)c1,-18.3,-13.6
OC[C@@H]1[C@H](c2ccc(C#CC3CCCC3)cc2)[C@H]2CN(CCC(F)(F)F)CCCCN12,?,/
CC(C)NC(=O)Nc1ccc2c(c1)C(=O)N([C@H](C)CO)C[C@H](C)[C@H](CN(C)S(=O)(=O)c1ccccc1)OCCCC[C@@H](C)O2,16.5,15.3
CC(C)CC#Cc1cnc2c(c1)C(=O)N([C@H](C)CO)C[C@@H](C)[C@H](CN(C)Cc1cccc(F)c1)O2,-23.5,-15.2
O=C(C[C@H]1CC[C@@H]2[C@H](COC[C@H](O)CN2S(=O)(=O)c2ccc(F)cc2)O1)N[C@@H]1CCN(Cc2ccccc2)C1,-18.6,-15.7
CNC[C@@H]1OCCCC[C@H](C)Oc2ccc(NC(=O)Cc3ccccc3)cc2C(=O)N([C@@H](C)CO)C[C@@H]1C,-4.4,4.9
C[C@@H]1CN([C@@H](C)CO)C(=O)c2cccc(NS(=O)(=O)c3cn(C)cn3)c2O[C@@H]1CN(C)C(=O)Nc1cccc2ccccc12,37.9,14.9
C[C@@H]1CN([C@@H](C)CO)C(=O)Cc2cc(NC(=O)Nc3ccccc3)ccc2O[C@H]1CN(C)CC1CC1,-13.3,-20.9
C[C@@H]1CN([C@H](C)CO)S(=O)(=O)c2ccc(-c3cccc(C#N)c3)cc2O[C@@H]1CN(C)CC1CC1,-2.7,-3.4
CCS(=O)(=O)Nc1ccc2c(c1)C(=O)N(C)[C@H]1CC[C@H](CC(=O)NCCCN3CCOCC3)O[C@@H]1CO2,9.0,6.2
COc1ccc(NC(=O)N(C)C[C@H]2OCCCC[C@@H](C)Oc3ccc(NS(=O)(=O)c4cn(C)cn4)cc3C(=O)N([C@H](C)CO)C[C@H]2C)cc1,25.8,16.6
CCS(=O)(=O)N1CCC2(CC1)CN(C(=O)c1cccc(F)c1)[C@@H](CO)c1c2c2ccc(OC)cc2n1C,-17.8,-8.2
CCC(=O)N(C)C[C@@H]1Oc2ncc(-c3ccc(C#N)cc3)cc2C(=O)N([C@H](C)CO)C[C@@H]1C,19.1,5.5
C[C@@H]1CN([C@@H](C)CO)C(=O)CCCn2cc(nn2)CO[C@H]1CN(C)C(=O)c1ccccc1,14.0&-4.7,10.4&-8.3
C[C@@H]1CN([C@H](C)CO)C(=O)c2cc(C#Cc3ccncc3)cnc2O[C@@H]1CN(C)CC1CCCC1,-5.3,-6.3
CCC(=O)Nc1ccc2c(c1)C(=O)N(C)C[C@@H](OC)[C@@H](C)CN(Cc1ccccc1)[C@H](C)CO2,-9.2,9.7
O=C(NCC1CCCCC1)[C@@H]1[C@@H](CO)[C@@H]2Cn3c(ccc(-c4ccccc4)c3=O)[C@H]1N2,-1.4,-4.6
CO[C@@H]1CN(C)C(=O)c2cc(NC(=O)NC3CCCCC3)ccc2OC[C@H](C)N(CCc2ccccc2)C[C@H]1C,-30.2,-13.6
O=S(=O)(c1ccc(F)cc1)N1CCCCN2[C@H](CO)[C@H](c3ccc(C4=CCCCC4)cc3)[C@H]2C1,?,/
COc1cccc(S(=O)(=O)Nc2ccc3c(c2)C(=O)N(C)C[C@@H](OC)[C@@H](C)CN(C(=O)Cc2cccnc2)[C@@H](C)CO3)c1,20.7,11.3

# Pulled by structure from above, 7 records:
SMILES,Vaccinia stage,Vaccinia stage Venus
CCS(=O)(=O)N1CCC2(CC1)CN(C(=O)c1cccc(F)c1)[C@@H](CO)c1c2c2ccc(OC)cc2n1C,-17.8,-8.2
CO[C@@H]1CN(C)C(=O)c2cc(NC(=O)NC3CCCCC3)ccc2OC[C@H](C)N(CCc2ccccc2)C[C@H]1C,-30.2,-13.6
C[C@@H]1CN([C@@H](C)CO)C(=O)Cc2cc(NC(=O)Nc3ccccc3)ccc2O[C@H]1CN(C)CC1CC1,-13.3,-20.9
CCC(=O)N(C)C[C@@H]1Oc2ncc(-c3ccc(C#N)cc3)cc2C(=O)N([C@H](C)CO)C[C@@H]1C,19.1,5.5
CC(C)NC(=O)Nc1ccc2c(c1)C(=O)N([C@H](C)CO)C[C@H](C)[C@H](CN(C)S(=O)(=O)c1ccccc1)OCCCC[C@@H](C)O2,16.5,15.3
COc1ccc(CN(C)C[C@H]2Oc3ccc(NS(=O)(=O)c4c(C)noc4C)cc3C(=O)N([C@H](C)CO)C[C@H]2C)cc1,-7.7,-13.1
C[C@@H]1CN([C@H](C)CO)C(=O)c2cc(C#Cc3ccncc3)cnc2O[C@@H]1CN(C)CC1CCCC1,-5.3,-6.3

# More results
SMILES,Vaccinia stage,Vaccinia stage Venus
C[C@@H]1CCCCO[C@@H](CN(C)C(=O)Nc2ccc3c(c2)OCO3)[C@@H](C)CN([C@@H](C)CO)C(=O)c2cc(NC(=O)c3ccccc3)ccc2O1,-1.2,0.4
C[C@@H]1CN([C@H](C)CO)C(=O)c2cc(C3=CCCCC3)cnc2O[C@@H]1CN(C)C(=O)C1CCOCC1,12.0,10.1
CNC[C@@H]1Oc2ccc(NC(=O)Nc3ccc4c(c3)OCO4)cc2C(=O)N([C@@H](C)CO)C[C@H]1C,9.1,3.9
CO[C@H]1CN(C)C(=O)c2cc(NC(=O)C3CC3)ccc2OC[C@@H](C)N(C(C)=O)C[C@H]1C,9.2,5.7
O=C(C[C@H]1CC[C@H]2[C@@H](COC[C@H](O)CN2Cc2ccccc2F)O1)NCc1ccccc1F,2.4,9.8
COc1ccc(-c2ccc([C@H]3[C@H](CO)N4C(=O)CN(C(=O)C5CCC5)C[C@@H]34)cc2)cc1,-6.4,-1.8
Cc1ccc(S(=O)(=O)Nc2ccc3c(c2)C(=O)N([C@@H](C)CO)C[C@H](C)[C@H](CN(C)Cc2ccc(Cl)c(Cl)c2)O3)cc1,-20.4,-18.4
COCC(=O)Nc1ccc2c(c1)OC[C@@H](C)N(C(=O)c1ccccc1F)C[C@H](C)[C@H](OC)CN(C)C2=O,-3.6,3.4
COc1ccc(CN(C)C[C@@H]2OCCCC[C@H](C)Oc3ccc(NS(=O)(=O)c4ccccc4)cc3C(=O)N([C@H](C)CO)C[C@@H]2C)cc1,?,/
CCC(=O)NC[C@H]1[C@@H](c2ccccc2)[C@H](CO)N1C(=O)C1CCC1,4.4,-4.1
C[C@H](CO)N1C[C@H](C)[C@H](CN(C)S(=O)(=O)c2ccccc2)Oc2ncc(C#CCN(C)C)cc2C1=O,15.7&8.9,3.5&0.7
Cc1ccc(S(=O)(=O)Nc2ccc3c(c2)C(=O)N([C@@H](C)CO)C[C@@H](C)[C@H](CN(C)S(=O)(=O)c2cccs2)OCCCC[C@@H](C)O3)cc1,?,/
Cc1ccc(S(=O)(=O)N(C)C[C@H]2Oc3ccc(NC(=O)NC4CCCCC4)cc3CC(=O)N([C@H](C)CO)C[C@@H]2C)cc1,-30.6,-22.0
C[C@@H]1CN([C@@H](C)CO)C(=O)c2cccc(NC(=O)c3cnccn3)c2O[C@@H]1CN(C)S(=O)(=O)c1cccs1,0.5,-2.8
CC(C)CC#Cc1ccc([C@@H]2[C@H]3CN(C(=O)c4ccc5c(c4)OCO5)CCCCN3[C@H]2CO)cc1,?,/
CNC[C@H]1Oc2cc(-c3cccnc3)ccc2S(=O)(=O)N([C@@H](C)CO)C[C@@H]1C,4.4,13.9
CC(C)NC(=O)N[C@H]1C=C[C@H](CC(=O)NCCN2CCCC2)O[C@@H]1CO,5.4,-0.2
CCCN(C)C[C@H]1Oc2ncc(C#CCC(C)C)cc2C(=O)N([C@@H](C)CO)C[C@H]1C,-34.2,-30.0
C[C@@H]1CN([C@H](C)CO)C(=O)c2cc(NC(=O)Cc3ccccc3)ccc2O[C@@H](C)CCCCO[C@H]1CN(C)S(C)(=O)=O,-13.8,-17.8
COc1cccc(-c2ccc3c(c2)O[C@@H](CN(C)C)[C@H](C)CN([C@@H](C)CO)S3(=O)=O)c1,-29.7,-18.8
CN(C)Cc1cn(CC[C@@H]2CC[C@H](NC(=O)Nc3ccccc3F)[C@@H](CO)O2)nn1,-0.5,0.6
C[C@H](CO)N1C[C@H](C)[C@H](CN(C)Cc2ccncc2)Oc2ncc(-c3cc4ccccc4o3)cc2C1=O,-21.1,-12.8
CNC[C@@H]1Oc2cc(C#CCC3CCCC3)ccc2S(=O)(=O)N([C@H](C)CO)C[C@H]1C,?,/
N#C[C@H]1[C@@H](c2ccccc2)[C@H](CO)N1S(=O)(=O)Cc1ccccc1,3.6,-1.6
CCCC#Cc1cnc2c(c1)C(=O)N([C@@H](C)CO)C[C@H](C)[C@H](CN(C)C(=O)NC1CCCC1)O2,4.4,-4.8
COC(=O)[C@H](Cc1ccccc1)N1CC2=C[C@@H](C3CC3)n3c(=O)n(C)c(=O)n3[C@H]2[C@@H]1[C@@H](O)Cc1ccccc1,-12.7,-9.2

# High-throughput results (PubChem)
